Mtb hypoxia rep = reduces hypoxia-regulated biosensor signal in M. tuberculosis. M. tuberculosis hypoxia-regulated fluorescent reporter, fluorescence. fluorescence inhibition, % (test concentration not listed). hit rate 0.1% among 300,000. AID 1159583;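 active = 35 to 45% if threefold the growth effect, above 45% if 1.5-fold the growth effect; inactive = the rest, general growth blockers included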;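 also: wells of about 50 µL received 100 nL stock; 0% = vehicle wells and 100% = reference inhibitor wells; whole bacteria with a GFP reporter of the hypoxia response; strong numbers were not always called active; many hits fall short of the cut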
Autofluor counter = compound fluorescence in toxin protease inhibitor counterscreen; hit rate 3.1% among 360,000; fluorescence intensity (concentration not given with the values); compound autofluorescence counterscreen, microsphere flow cytometry; stronger effect = higher value;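 active = at least 3 SD above the mean of all compounds, about 16000 in these data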;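 also: 100 nL of 1 mM stock went into each well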
PrP UTR inh = inhibition of PrP 5' UTR reporter expression; cell-based PrP 5' UTR mRNA reporter, plate reader; inhibition, % (test concentration not listed); hit rate 0.35% among 340,000;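 active = every replicate at 50% or more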;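 also: 0 = median of the neutral control wells; tested in H4 reporter cells; numbers are from one replicate; inactives centre near -14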
Sa RN4220 lethal = S. aureus RN4220 growth inhibition. OD600, 16 h. inhibition, % (test concentration not listed). hit rate 0.33% among 330,000. AID 1259311;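 active = z-score of -3 or lower and OD600 up to 0.18 on both plates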;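 also: plate controls were untreated cells for no effect and reference antibiotic for full effect; stock transfer was 100 nL into about 80 µL; one replicate is shown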
BJeLR viability = BJeLR cell viability loss; inhibition, % (test concentration not listed); BJeLR (HRASV12) viability, CellTiter-Glo ATP luminescence, 48 h; reference of the scale not given here; hit rate 0.17% among 300,000;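 active = replicate mean above 50%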;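 also: 50 nL library stock added to about 25 µL; numbers are from one replicate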
Sa ugtP lethal = kills S. aureus RN4220 lacking UgtP; S. aureus RN4220 ugtP deletion, OD600 growth, 16 h; some inactives read as strong as hits; hit rate 0.54% among 330,000; growth inhibition, % (concentration not given with the values);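 active = z-score under -3 and OD600 up to 0.15 on both plates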;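 also: plate controls were untreated wells for no effect and antibiotic for full effect; wells of about 80 µL received 100 nL stock; the first replicate is given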
Mtb hypoxia rep growth = recorded beside Mtb hypoxia rep, whose call it bears; growth inhibition, %; measured here: M. tuberculosis growth (absorbance);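 0% = vehicle and 100% = reference antibiotic; read after six days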
Active calls of the source: *; . = no result given; & = joins results of further samples. Random draw from the library; 4% or so of the library scored in one or more.

Under each structure: Mtb hypoxia rep | Mtb hypoxia rep growth | Autofluor counter | PrP UTR inh | Sa RN4220 lethal | BJeLR viability | Sa ugtP lethal
CC1CN(S(=O)(=O)c2cccc3nsnc23)CC(C)O1 (stereo not given)
 : 1 | 10 | 10486 | -29 | 5.0 | 7 | 0
O=C(NCCCCc1ccccc1)C1CC(c2cccc(F)c2)=NO1 (stereo not given)
 : -2 | -3 | 3893 | -19 | 1.2 | 0 | 7
CCCCOc1ccc(NC(=O)c2cnc(C)cn2)cc1
 : . | . | 3006 | -54 | -0.4 | 4 | 0
COc1ccc(CC(=S)NCCc2ccccc2)cc1
 : -6 | -1 | 4057 | -21 | -4.6 | -6 | 9
CCN1C(=O)c2cccc3c(NC(=O)C4CCCCC4)ccc1c23
 : 12 | 6 | 12745 | -20 | 3.7 | 9 | -1
CN(C)S(=O)(=O)c1cccc(NC(=O)c2n[nH]c(=O)c3ccccc23)c1
 : 2 | 1 | 4113 | -22 | 3.5 | -10 | 3
COC(=O)c1sc(NC(=S)NC(=O)c2ccccc2C)nc1C
 : -14 | -1 | 3205 | -42 | 3.5 | 0 | 2
O=C(CN1CCN(C(=O)CNC(=O)c2ccc3c(c2)OCO3)CC1)Nc1ccccc1Cl
 : 1 | 7 | 3782 | -5 | 0.9 | . | -2
Cc1cccc2cc3c(NC(=O)c4ccccn4)nn(C)c3nc12
 : . | . | 4906 | -9 | -7.3 | 3 | 9
C/C(=N\NC(=O)c1ccc(CN(C)S(=O)(=O)c2ccc(C)cc2)cc1)c1ccc(OC(F)F)cc1
 : . | . | 2438 | -16 | . | 7 | .
C/C(=N/NC(=S)Nc1ccccc1)c1ccc2c(c1)OCO2
 : . | . | 2313 | -25 | . | 4 | .
COC(=O)C1=C(C)N(CCc2cc(OC)c(OC)c(OC)c2)C(=O)N[C@H]1c1ccccc1
 : . | . | 3721 | 1 | . | -5 | .
O=C(CN1CCCCCC1)NN=Cc1cccc(Cl)c1
 : 3 | -6 | . | . | 1.9 | . | 1
O=C(NC1CC1)C1=C[C@@H](c2c[nH]c3ccccc23)C[C@@H](OCCCCO)O1
 : . | . | 3239 | -16 | . | 3 | .
Cc1ccc(-c2csc(NC3OC(=O)c4ccccc43)n2)cc1 (stereo not given)
 : . | . | 5406 | -4 | . | -10 | .
CCN(CC)C(=O)NCc1c(C)cc(C)cc1C
 : -6 | 3 | 4824 | -23 | 1.7 | 8 | 3
COc1nc(Oc2ccc(C(=O)OCC(N)=O)cc2)nc(N(C)C)n1
 : -4 | 4 | 4220 | -28 | -3.7 | 0 | 13
CN(C)c1ccc(C=NN=C2SC(CC(=O)O)C(=O)N2c2ccc(O)cc2)cc1 (stereo not given)
 : 0 | -4 | . | . | 8.2 | . | 3
CCc1nnc(NC(=O)CSc2nc3ccccc3c(=O)n2CCCOC)s1
 : . | . | 3601 | 6 | -1.0 | -2 | 16
O/C(=C\c1ccc2ccccc2n1)c1ccncc1
 : . | . | 3871 | -20 | . | 17 | .
CC(CCc1ccccc1)NC(=O)CN1C(=O)NC2(CCCCC2C)C1=O (stereo not given)
 : 0 | -8 | 3071 | -9 | 7.5 | . | 14
O=C(NC(=S)Nc1ccc(S(=O)(=O)Nc2nccs2)cc1)C1CC1
 : 6 | 17 | 4807 | -12 | 9.5 | 3 | 17
CCc1cc(=O)[nH]c(SCC(=O)N2CCC(Cc3ccccc3)CC2)n1
 : 7 | 5 | 6112 | -9 | 4.5 | 4 | 8
Cc1cc(C(=O)N=Nc2c(O)n(C(C)C)c3ccccc23)n[nH]1
 : . | . | 4618 | -8 | 9.2 | -4 | -11
O=C(NNC(=O)c1csc(-c2cccnc2)n1)c1ccccc1
 : 11 | 9 | 4429 | 2 | 3.1 | -5 | 0
COc1ccc(-c2nc(C=O)cs2)cc1
 : 5 | 11 | 4982 | -13 | 6.9 | -2 | 0
O=C(Nc1ccc(C(=O)O)cc1)Nc1cccc2ccccc12
 : 10 | 4 | 6053 | -12 | 2.8 | -9 | -3
CNc1ccc(SC#N)cc1
 : 4 | 8 | 4255 | -2 | 11 | -8 | 5
CC=C(C)C(=O)OC1c2c(ccc3ccc(=O)oc23)OC(C)(C)C1OC(C)=O (stereo not given)
 : 18 | 11 | . | . | 4.1 | . | 2
CCCC[n+]1ccn(-c2nc3ccccc3nc2[N-]S(=O)(=O)c2cccs2)c1
 : 13 | 0 | 4134 | -18 | 5.8 | -4 | 4
COC(=O)C1C2CCC(C2)C1C(=O)OCC(=O)c1ccc(C)cc1 (stereo not given)
 : 13 | 13 | 15712 | -27 | 3.7 | 9 | 12
C=C(C)c1cccc(C(C)(C)NC(=O)Nc2ccc(OC)nc2)c1
 : 1 | -4 | 3140 | -2 | 4.9 | 0 | -9
O=C(COC(=O)COc1ccc(Cl)cc1Cl)NC1CC1
 : 8 | 9 | 3959 | -27 | 1.1 | . | -3
O=C(NC(CC(=O)N1CCN(c2ccccc2)CC1)c1ccccc1)c1ccccc1Cl (stereo not given)
 : 2 | 1 | 2144 | -17 | 10 | -3 | 0
Cn1c(=O)c(=O)n(C)c2cc(S(=O)(=O)N3CCCC3C(=O)NCc3cccnc3)ccc21 (stereo not given)
 : 14 | 3 | 4169 | -23 | 5.3 | -6 | 6
O=C(c1ccco1)N1CCN=C1SCc1cccc(F)c1
 : . | . | 5792 | -21 | 4.5 | -5 | 3
CCOC(=O)CNS(=O)(=O)c1ccc(C)cc1
 : 1 | -11 | 2613 | -6 | 6.7 | 1 | -2
Clc1ccc(-n2c(SCc3nc4ccccc4[nH]3)nnc2-c2ccncc2)cc1
 : 1 | 11 | 21021* | -5 | 3.5 | 0 | 3
O=C(Cc1cc(=O)[nH][nH]1)N/N=C/c1cccc(Cl)c1Cl
 : . | . | 2371&2166 | -15&-6 | . | -12&0 | .
NS(=O)(=O)c1ccc(NC(=S)NCc2ccccc2Cl)cc1
 : . | . | 2246 | -11 | . | 1 | .

In a second layout: results already given.
molecule: CCCC[n+]1ccn(-c2nc3ccccc3nc2[N-]S(=O)(=O)c2cccs2)c1
  Mtb hypoxia rep = 13	Mtb hypoxia rep growth = 0	Autofluor counter = 4134	PrP UTR inh = -18	Sa RN4220 lethal = 5.8	BJeLR viability = -4	Sa ugtP lethal = 4
molecule: COC(=O)C1C2CCC(C2)C1C(=O)OCC(=O)c1ccc(C)cc1 (stereo not given)
  Mtb hypoxia rep = 13	Mtb hypoxia rep growth = 13	Autofluor counter = 15712	PrP UTR inh = -27	Sa RN4220 lethal = 3.7	BJeLR viability = 9	Sa ugtP lethal = 12

(listing goes on)
Under each structure: Mtb hypoxia rep | Mtb hypoxia rep growth | Autofluor counter | PrP UTR inh | Sa RN4220 lethal | BJeLR viability | Sa ugtP lethal
COC(=O)c1cc(-c2cccc(OC)c2)n[nH]1
 : . | . | 2764 | -26 | 1.5 | 10 | -8
COC(=O)c1sccc1NC(=S)N1CCN(c2ccccc2F)CC1
 : -1 | 0 | 1957 | -6 | -2.8 | -1 | 7
Cc1ccc(S(=O)(=O)/N=C(\N)c2ccc(Cl)cc2)cc1
 : 1 | -3 | 3951 | . | -1.8 | 0 | 5
Cn1c(SCC(=O)NNC(=S)Nc2ccccc2)nnc1-c1ccccc1
 : 3 | -1 | 3504 | -51 | 2.6 | 4 | 4
CCn1c(SC2CCOC2=O)nnc1-c1ccc(Cl)cc1 (stereo not given)
 : 9 | 8 | 5016 | -6 | 7.7 | 8 | 11
COc1cc(/C=C2/C(=N)N3N=C(CC(=O)N4CCOCC4)SC3=NC2=O)ccc1OCc1ccc(F)cc1
 : 3 | 0 | 6239 | -38 | 1.1 | 6 | -7
O=C(NCCc1ccccc1)c1cc(-c2ccc3c(c2)OCO3)on1
 : 2 | 8 | 10777 | -16 | -0.6 | 1 | -3
Cc1ccccc1-c1nc(CS(=O)(=O)CC(=O)N2CCOCC2)c(C)o1
 : -1 | 9 | 5898 | 8 | -1.3 | 2 | -9
COc1ccc(-c2noc(N3CCC(C(=O)Nc4cccc(OC)c4)CC3)n2)cc1
 : 6 | 7 | 4346 | -2 | -6.5 | -3 | -4
COc1ccc(S(=O)(=O)N2CCCC2CNC(=O)C(=O)NCc2ccc(C)cc2)cc1 (stereo not given)
 : -10 | 7 | . | -1 | 2.2 | -6 | 5
O=C(c1ccc(S(=O)(=O)N2CCCC2)cc1)N1CCN(c2cccc(Cl)c2)CC1
 : 1 | 5 | 5416 | -9 | -2.1 | -1 | 1
O=C(O)CC1NC(=S)N(c2ccccc2)C1=O (stereo not given)
 : -5 | -3 | 8217 | . | -3.7 | -2 | -1
CN(CC(=O)Nc1ccccc1Cl)C(=O)c1ccc(COc2ccccc2)cc1
 : 9 | 5 | 5038 | -15 | -3.0 | 0 | 8
CC1CCN(C(=S)c2cccc(O)c2)CC1
 : 18 | 0 | 4515 | -16 | 4.4 | . | 4
O=C(COC(=O)C1(c2ccccc2F)CCCC1)N1CCNC1=O
 : -2 | 6 | 5841 | -11 | 1.4 | . | 1
CCOC(=O)c1cnc2ccc(OCC)cc2c1N1CCN(C)CC1
 : . | . | 2763 | -8 | -2.8 | 7 | -5
Cc1ccc(C(=O)COC(=O)[C@@H](NC(=O)c2ccco2)C(C)C)s1
 : 6 | 8 | 3004 | -6 | 4.9 | . | 12
COc1ccc2nc(-c3ccc(F)cc3)sc2c1
 : -1 | 2 | 4317 | 21 | 2.4 | 1 | -7
CCOC(=O)CNCCC(=O)c1ccc(Br)cc1
 : 11 | 6 | 2571 | -11 | 11 | -9 | 39
Cc1ccc(NC(=O)COc2ccc(C(=O)NCCc3ccccc3)cc2)cc1
 : 2 | 0 | . | . | 1.7 | 18 | 7
O=C1C(c2ccccc2)=C(N2CC2)c2ccccc21
 : . | . | 2429 | -38 | -2.0 | 4 | 4
CC(C)(C)C1CCC(=O)N(C(CSc2ccc(Br)cc2)Cc2ccccc2)CC1 (stereo not given)
 : 6 | -2 | . | . | 0.5 | . | 2
O=C(COc1ccccc1)Nc1ccc2[nH]ncc2c1
 : 11 | 3 | . | -17 | 3.0 | 6 | 4

Of the compounds above, these contain a Cl atom:
Under each structure: Mtb hypoxia rep | Mtb hypoxia rep growth | Autofluor counter | PrP UTR inh | Sa RN4220 lethal | BJeLR viability | Sa ugtP lethal
O=C(CN1CCN(C(=O)CNC(=O)c2ccc3c(c2)OCO3)CC1)Nc1ccccc1Cl
 : 1 | 7 | 3782 | -5 | 0.9 | . | -2
O=C(CN1CCCCCC1)NN=Cc1cccc(Cl)c1
 : 3 | -6 | . | . | 1.9 | . | 1
O=C(COC(=O)COc1ccc(Cl)cc1Cl)NC1CC1
 : 8 | 9 | 3959 | -27 | 1.1 | . | -3
O=C(NC(CC(=O)N1CCN(c2ccccc2)CC1)c1ccccc1)c1ccccc1Cl (stereo not given)
 : 2 | 1 | 2144 | -17 | 10 | -3 | 0
Clc1ccc(-n2c(SCc3nc4ccccc4[nH]3)nnc2-c2ccncc2)cc1
 : 1 | 11 | 21021* | -5 | 3.5 | 0 | 3
O=C(Cc1cc(=O)[nH][nH]1)N/N=C/c1cccc(Cl)c1Cl
 : . | . | 2371&2166 | -15&-6 | . | -12&0 | .
NS(=O)(=O)c1ccc(NC(=S)NCc2ccccc2Cl)cc1
 : . | . | 2246 | -11 | . | 1 | .
Cc1ccc(S(=O)(=O)/N=C(\N)c2ccc(Cl)cc2)cc1
 : 1 | -3 | 3951 | . | -1.8 | 0 | 5
CCn1c(SC2CCOC2=O)nnc1-c1ccc(Cl)cc1 (stereo not given)
 : 9 | 8 | 5016 | -6 | 7.7 | 8 | 11
O=C(c1ccc(S(=O)(=O)N2CCCC2)cc1)N1CCN(c2cccc(Cl)c2)CC1
 : 1 | 5 | 5416 | -9 | -2.1 | -1 | 1
CN(CC(=O)Nc1ccccc1Cl)C(=O)c1ccc(COc2ccccc2)cc1
 : 9 | 5 | 5038 | -15 | -3.0 | 0 | 8
